Tgondii IFNg – T. gondii growth inhibition with IFN-gamma, primary screen, cell-based. Toxoplasma gondii growth in IFN-gamma-treated host cells; active compounds read low; reference of the scale not given here. activity change, negative = inhibition, %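 (about 20 µM by stock and volumes)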. 3.8% of 69,000 active. AID 1259416, 2018;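 active = below -70%; inconclusive = fit judged invalid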;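 also: host cells are HeLa cells infected with Toxoplasma gondii; parasite growth read as luciferase light; one replicate is shown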
Active calls of the source: *; i = inactive; ? = inconclusive. Some of the compounds tested (hit frequency here may not be typical).

Compound	Tgondii IFNg
COc1c(F)cccc1C(=O)N(C)Cc1nc(-c2ccccn2)no1	4
CC(=O)c1c(C)nn(CCC(=O)N2CCCC(O)(CN(C)C)C2)c1C (stereo unspecified)	-3
O=C(Nc1ccc(F)c(F)c1)c1c(O)c2ccccc2[nH]c1=O	372
CC(=O)N1C[C@@H]2CCCN(Cc3cnn(C)c3)[C@@H]2C1	9
CN(C)Cc1noc2c1CN(Cc1nccn1C)CC2	-75*
C[C@@H]1CN([C@@H](C)CO)C(=O)CCCn2nncc2CO[C@@H]1CN(C)C(=O)Nc1ccc2c(c1)OCCO2	410
CCc1ccc(NC(=S)Nc2ccc(Cl)cc2C(=O)c2ccccc2)cc1	-96*
O=C(c1c(F)cccc1F)N1CCC2(CC1)Nc1ccc(Cl)cc1-n1cccc12	47
N[C@H](Cc1ccccc1)C(=O)O	3
O=S(=O)(c1ccccc1)c1cccs1	-4
Cn1c(=O)c(-c2nc(-c3ccc(F)c(Br)c3)no2)c(O)c2ccccc21	-28
O=C(NCC1CC1)[C@H]1[C@H](CO)[C@H]2Cn3c(ccc(-c4ccccc4F)c3=O)[C@@H]1N2Cc1cncnc1	5
Cc1ccc(C(=O)Nc2ccc(-n3nc(C(F)(F)F)cc3-c3cccs3)cc2)cc1	69
Cc1ccc2c(c1)c(C)cc(=O)n2CCC(=O)O	-1
O=C(Nc1ccccc1SCc1cccc(C(F)(F)F)c1)c1c(F)cccc1Cl	-35
Cc1ccc(-c2nc(Cn3nnc(-c4nc(-c5ccccc5Cl)no4)c3C)c(C)o2)cc1	-25
CN(C)C1CCCN(C(=O)CCn2cc(Cl)cn2)CC1 (stereo unspecified)	14
COc1cccc(C(=O)Nc2ccc3c(c2)C(=O)N(C)[C@H]2CC[C@@H](CC(=O)NCc4ccc(F)cc4)O[C@@H]2CO3)c1	8
CC1CCCN1Cc1cccc(C(=O)Nc2ccc3ncccc3c2)c1 (stereo unspecified)	37
COc1ccc(-n2c(C)c([N+](=O)[O-])c3ccc(O)cc32)cc1	-77*
CC(=O)Oc1cccc(-c2csc(-n3nc(C(F)(F)F)cc3-c3ccc(Cl)cc3)n2)c1	-93*
COCC(=O)N1[C@H](CO)[C@@H](c2ccccc2)C12CN(C(=O)c1ccccc1)C2	40
O=C(c1ccc(CSc2ccc(Cl)cc2)o1)N1CCOCC1	1
COC(=O)[C@@H]1C[C@@H](NC(=O)c2ccc(-c3ccc(OC)cc3)o2)CN1C	4

An excerpt of the results above, for reference:
Compound	Tgondii IFNg
O=C(Nc1ccc(F)c(F)c1)c1c(O)c2ccccc2[nH]c1=O	372
CC(=O)N1C[C@@H]2CCCN(Cc3cnn(C)c3)[C@@H]2C1	9
CN(C)Cc1noc2c1CN(Cc1nccn1C)CC2	-75*

Following part.
Compound	Tgondii IFNg
Cn1ccc2c(-c3ccccc3C(N)=O)ccnc21	8
O=C(NCC1CC1)[C@@H]1[C@@H](CO)[C@@H]2Cn3c(ccc(C4=CCCC4)c3=O)[C@@H]2N1C(=O)C1CC1	-2
CCC(C)(C)n1nnnc1C(c1cc2cccc(C)c2[nH]c1=O)N1CCC(C)CC1 (stereo unspecified)	42
Cc1cc(C2CCCN2C(=O)c2cc(C(F)(F)F)nn2C)on1 (stereo unspecified)	1
CC(C)Nc1cc(-c2c[nH]c(C(=O)N[C@H](CO)c3cccc(Cl)c3)c2)c(Cl)cn1	-66
CCOc1ccccc1NC(=O)CC(=O)N1CCCC1c1nc(C)no1 (stereo unspecified)	8
O=C(CCc1nc2ccc(Cl)cc2[nH]1)NCCc1nc(-c2ccccc2)cs1	-52
COc1ccc(Cl)cc1C(=O)NCCc1csc(-c2cccc(F)c2)n1	-90*
CN(C)CCC(=O)c1ccc2c(c1)OCO2	0
CCC(=O)Nc1cccc(OCC(=O)N[C@H]2C[C@H]3CN(C)CCN3C2)c1	22
Cc1nnc2ccc(NCC(=O)O)nn12	0
Cc1csc(-c2csc(S(=O)(=O)N3CCC(Cc4ccccc4)CC3)c2)n1	12
Cc1nc(-c2cc(C(=O)NCC(=O)N(C)C)c3ccccn23)cn1Cc1cccnc1	97
O=C(C[C@@H]1CC[C@@H]2NC[C@@H](O)COC[C@H]2O1)NCCc1ccncc1	-28
O=C(NCc1cccc2ccccc12)c1ncoc1-c1cccs1	31
Cc1ccc2[nH]c(C(=O)NCc3cccnc3)c(NC(=O)c3ccc(Cl)cc3)c2c1	-16
COc1ccc(S(=O)(=O)Nc2cccc3c2O[C@H](CN(C)CC2CCCCC2)[C@H](C)CN([C@@H](C)CO)C3=O)cc1	-66
COc1cc2c(cc1OC)CN(C(=O)c1cn[nH]n1)CC2	-10
Cc1cc(NC(=O)N2CCC(c3nc(C(=O)N(C)C)c(C)o3)CC2)ccc1Br	112
Clc1ccc2sc(Sc3ccccc3)nc2c1	-14
CCc1c(C(=O)N(Cc2cccnc2)C[C@@H]2CCC(=O)N2)[nH]c2ccccc12	-24
Cc1ccc(NC(=O)Cn2c(=O)cc(C(=O)N3CCCCC3)c3ccccc32)cc1C	2
COc1ccc(-c2cccc(-c3nc(C(=O)N(C)C)cc4c3[C@H](CCO)N([S@@](=O)C(C)(C)C)C4)c2)cc1	-29
Cc1oc(C2CCN(C(=O)c3ccc(F)c(Cl)c3)CC2)nc1C(=O)N1CCCCC1	15
O=C(c1ccc2c(=O)n(CCC3=CCCCC3)c(=S)[nH]c2c1)N1CCC(O)(c2cccc(C(F)(F)F)c2)CC1	11
CC(=O)Nc1cccc(-c2ccccc2OC(C)C)c1	-3
CCc1ccc(CN(CC)C2CCS(=O)(=O)C2)nc1 (stereo unspecified)	2
Cc1ccc2c(C)c(C(=O)N3CCC(c4ccccc4C(=O)O)C3)oc2c1 (stereo unspecified)	4
O=C1NCCN2CCN(C(=O)Cn3cccc3)CC12 (stereo unspecified)	-41
Cn1cccc1C(=O)N[C@H]1CN(S(C)(=O)=O)C2CCCOC21 (stereo partly specified)	2
CCc1cccc(NC(=O)N2CCn3cnc(COC)c3C2)c1	i
Cc1ccc(NC(=O)Cn2c(=O)cc(C(=O)N3CCc4ccccc4C3)c3ccccc32)cc1F	-48
CN(NC1CC(=O)N(c2cccc(Cl)c2)C1=O)c1ccccc1 (stereo unspecified)	444
O=C(C1CCOC1)N1CCN(C2Cc3ccccc3C2)CC1 (stereo unspecified)	12
CN(C)C[C@@]12COC[C@H]1CN(S(=O)(=O)c1cccc(F)c1)C2	-39
CCc1cccc(NC(=O)c2c(O)c3cccnc3n(-c3ccc(OC)cc3)c2=O)c1	3
CSc1nsc(SC)c1C(=O)NCc1ccc2c(c1)OCO2	99
Cc1nc(C(C)C)sc1C(=O)N1CCCN(C)C2(CCN(C)CC2)C1	0
CN(C)C(=O)C[C@H]1COC[C@H]2CN(Cc3nccs3)C[C@@H]12	10
CC(C)(C)NC[C@@H]1CCC[C@@H]2CN(Cc3nccs3)C[C@H]21	-3
CC(=O)Nc1nc(C2CCN(C(=O)c3ccn(C)n3)CC2)cs1	-3
Cc1nc2cc(C3CCOCC3)nn2c(NCCCNC(=O)c2ccccn2)c1C	0
COCC(=O)N1CC(=O)N2[C@H](CO)[C@@H](c3ccc(C#CC4CC4)cc3)[C@H]2C1	-10
C[C@@H]1CN([C@H](C)CO)C(=O)Cc2cc(NS(=O)(=O)c3ccc(Cl)cc3)ccc2O[C@H]1CN(C)C(=O)Nc1ccc(C(F)(F)F)cc1	2
Cc1cc(COc2ccccc2)oc1C(=O)N1CCC2(CCCO2)CC1	8
O=C(NCc1ccccn1)c1cccc(C(F)(F)F)n1	54
COc1cccc(-c2ccc([C@@H]3[C@H](CO)N4C(=O)CN(C(=O)c5cccnc5)C[C@@H]34)cc2)c1	-10
Cc1cc(C)cc(C(=O)NCCc2sc(-c3ccc(F)cc3)nc2C)c1	-77*
CC(=O)NCc1noc2c1CN(c1ncccn1)CC2	3
Cc1nc(Nc2cccc(C3CCCN3C(=O)c3n[nH]c4c3CCCC4)n2)sc1C (stereo unspecified)	54
CN1C2(CCN(CC3CC3)C2)c2ccccc2S1(=O)=O (stereo unspecified)	5
Cc1cccc(CN2CCCC3(CCN(c4cncnc4)C3=O)C2)n1 (stereo unspecified)	-3
COc1ccc(C2(C(=O)Nc3ccc(N4CCCC4)c4nonc34)CCOCC2)cc1	12
Cc1nc(C(=O)N2CCN(CCCOc3ccc(F)cc3)CC2)cs1	5
COc1ccc2[nH]c3c(Cl)ncnc3c2c1	5
O=C(C[C@H]1CC[C@H](NC(=O)c2ccc(F)cc2)[C@H](CO)O1)NCCc1ccccc1	-15
CCOC(C)c1ccc(-c2nccc(OC)n2)cc1 (stereo unspecified)	41
Cc1cc2c(cc1C)OC1(C=C2)CCN(CC(=O)NCc2ccccn2)CC1	21
CC1COC2(CCCN(C(=O)c3cnccn3)C2)C1 (stereo unspecified)	56
CCOc1ccccc1-c1nc(CSc2nc3c(=O)[nH]c(C)nc3n2C)c(C)o1	-56

Next section.
Compound	Tgondii IFNg
Cc1ccc(S(=O)(=O)NC(=O)Nc2scc(C)c2C(=O)c2ccccc2)cc1	14
O=C(C[C@@H]1CC[C@@H]2[C@H](COC[C@@H](O)CN2C(=O)Nc2ccc(F)cc2)O1)NC1CCC1	-1
CS(=O)(=O)N[C@@H]1CCN(c2ncccn2)[C@@H]1Cc1ccccc1	4
COc1ccc2c(c1OC)C(=O)NC(C)=C(C(=O)OC(C)(C)C)C2O (stereo unspecified)	?
Cc1ccc(S(=O)(=O)CCC(=O)NCCc2nc3ccccc3n2C)cc1C	-65
COc1ccccc1-c1nc(Cn2ccn3nc(-c4ccc(F)cc4)cc3c2=O)c(C)o1	303
CCOc1ccc(CC(=O)N2CCC3(CC2)Nc2cc(F)ccc2-n2cccc23)cc1OCC	20
CCn1c(=O)c(-c2nc(-c3ccc(OCC(C)C)cc3)no2)c(O)c2ccc(F)cc21	15
COc1cccc(-n2c(=O)c(C(=O)Nc3cc(F)cc(F)c3)c(O)c3cccnc32)c1	-32
c1cc2c(cc1N1CCC(N3CCOC4(CNCCOC4)C3)CC1)CCC2 (stereo unspecified)	-8
CN(Cc1nnc(-c2ccccc2)o1)C(=O)c1cn(CCN2CCCCC2)nn1	4
COc1ccc(-c2ccc3c(c2)[C@H]2[C@H](CCN2Cc2cncnc2)[C@H](CO)N3)cc1	7
NCC[C@@H]1CC[C@@H](NC(=O)NC2CCCCC2)[C@H](CO)O1	28
COCC1c2c(cnn2C)CCN1C(=O)Cc1ccsc1 (stereo unspecified)	48
CN(Cc1cccs1)C(=O)c1cc(CN2CCC(O)CC2)on1	12
Cc1ccc(-c2nccn2CCCO)c(Cl)c1Cl	16
Fc1cccnc1OC[C@@]12CCO[C@H]1CCN(Cc1ccccn1)C2	12
C=CCOCC1c2c(ncn2C(C)C)CCN1C(=O)C1CC1 (stereo unspecified)	-48
CCOC(=O)[C@@]12CCCN(S(C)(=O)=O)C[C@@H]1CN(C(C)C)C2	-6
C=CCn1c(=O)c(C(=O)Nc2cccc(F)c2)c(O)c2ccccc21	18
CCOCC1CN(Cc2ccc3c(c2)OCO3)Cc2ccnn2C1 (stereo unspecified)	9
CC(=O)Nc1ccc(Br)cc1	14
COc1cccc(CN2CC3(CN(CC4CCOCC4)C3)c3c([nH]c4cc(OC)ccc34)[C@H]2CO)c1	84
Cc1ccccc1-c1nc(Cn2nnc(C(=O)Nc3ccccc3)c2C)c(C)o1	67
Cc1cccc(C(=O)NCCc2sc(-c3ccc(F)cc3)nc2C)c1	-66
CS(=O)(=O)N(CCCC(=O)N1CCC(C(N)=O)CC1)c1cccc(Cl)c1	15
Cc1cccc(S(=O)(=O)N2C[C@H]3C[C@H](C(=O)NC4CCC4)[C@@H](C2)O3)c1	-1
Cn1ccnc1-c1c(-c2ccccc2)ncn1CC1CNCCO1 (stereo unspecified)	27
CCC(c1cccnc1)N(C)Cc1sccc1C (stereo unspecified)	-6
Cc1noc(C)c1NC(=O)Nc1ccc2c(c1)C(=O)N([C@H](C)CO)C[C@H](C)[C@H](CN(C)S(=O)(=O)c1cccs1)OCCCC[C@H](C)O2	262
CCNC(=O)[C@@H]1[C@@H](CO)[C@@H]2Cn3c(ccc(-c4cncnc4)c3=O)[C@@H]2N1C(=O)NC1CCCC1	8
COc1ccc(S(=O)(=O)NCCc2sc(-c3ccc(C)cc3)nc2C)cc1F	-42
CCN1c2cc(C)ccc2-n2cccc2C12CCN(C(=O)Nc1cc(Cl)ccc1C)CC2	-28
COc1ccc(CCC(=O)N2CCC3(CC2)Nc2cc(F)ccc2-n2cccc23)cc1	-75*
Cn1nnnc1SCCCNCc1c(F)cccc1Cl	-7
CCN(C(=O)c1cccc(NC(=O)c2cc(C)nc(C)n2)c1)c1ccccc1	-7

Molecules shown so far that contain bromine (three):
Compound	Tgondii IFNg
Cn1c(=O)c(-c2nc(-c3ccc(F)c(Br)c3)no2)c(O)c2ccccc21	-28
Cc1cc(NC(=O)N2CCC(c3nc(C(=O)N(C)C)c(C)o3)CC2)ccc1Br	112
CC(=O)Nc1ccc(Br)cc1	14

Assay outcomes (PubChem BioAssay)
